A1 inhib: inhibitors of A1 | MEF A1-2A-BIM cells, caspase-Glo luminescence, 3 h; percent of clofoctol signal, DMSO as zero | caspase activation, % (concentration not given with the values) | hit rate 0.51% among 21,000;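 active means most replicate scores above 10, or exactly half above 10 with mean activity above 10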;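 further: effector caspase 3 and 7 activity cleaving a DEVD luciferin substrate; 50 nL library stock added to about 30 µL; numbers are from one replicate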
BJeLR viab HTS: BJeLR cell viability reduction. BJeLR fibroblasts viability, CellTiterGlo ATP luminescence, 48 h; HRASV12, hTERT and SV40 LT/ST transformed. viability loss activity score, % (concentration not given with the values). hit rate 0.64% among 30,000. AID 2275; in the data active means viability loss activity score above about 50%; about a fifth of its hits are not listed in these tables;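 further: higher score means fewer live cells and less ATP luminescence; stock transfer was 50 or 100 nL into about 30 µL; 0% = vehicle wells and 100% = a reference killing control; one replicate is shown; the record names a cut of 85%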
An asterisk follows results filed as active; · = not tested or not shown. These rows are one share of the data; count on the stated rates, not on these rows.

SMILES	A1 inhib	BJeLR viab HTS
COc1ccc(NC(=O)Nc2cccc3c2O[C@H](CN(C)S(=O)(=O)c2ccc(Cl)cc2)[C@H](C)CN([C@@H](C)CO)C3=O)cc1	·	0.3
CC(=O)N(CC(C)C(=O)O)c1c(I)cc(I)c(N)c1I (centres undefined)	-0.6	-1.0
C[C@H]1CN([C@@H](C)CO)C(=O)c2cccc(NC(=O)c3ccc(-c4nccs4)cc3)c2O[C@H]1CN(C)S(=O)(=O)c1ccc(Cl)cc1	·	4.9
CC(=O)OCC1OC(n2ccc(=O)[nH]c2=O)C(OC(C)=O)C1OC(C)=O (centres undefined)	0.4	2.7
O=c1c2sccc2nc(SCc2ccccc2)n1CCc1ccccc1	-0.8	4.2
C[C@@H]1CN([C@H](C)CO)C(=O)c2cc(NC(=O)C3CCCCC3)ccc2O[C@@H]1CN(C)C	-0.2	2.6
CSc1ccc(-c2cccs2)nn1	-6.2	16
CC(=O)N/C(=C/c1ccc(Cl)c(Cl)c1)C(=O)O	-0.9	0.2
C[C@H]1CN([C@@H](C)CO)C(=O)c2cc(NC(=O)Nc3cccc4ccccc34)ccc2O[C@@H]1CN(C)S(=O)(=O)c1ccccc1	0.7	-2.2
CCc1ccc2c(c1)=C(c1[nH]c(=S)[nH]c1O)C(=O)N=2	0.3	-4.2
Cc1cc(C)c2c(n1)sc1c(=O)n(/N=C/c3ccccc3)cnc12	-0.9	-4.1
COC(OC)c1nc(SCC(=O)Nc2ccc(C(C)C)cc2)ncc1C(=O)O	1.1	-6.6

Brought forward from above: two compounds; new compounds follow.
SMILES	A1 inhib	BJeLR viab HTS
Cc1cc(C)c2c(n1)sc1c(=O)n(/N=C/c3ccccc3)cnc12	-0.9	-4.1
COC(OC)c1nc(SCC(=O)Nc2ccc(C(C)C)cc2)ncc1C(=O)O	1.1	-6.6
CC(C)(C)c1ccc(Oc2ccc(NC(=O)c3ccccc3)cn2)cc1	-0.1	5.0
O=C(Oc1ccccc1)N1CCCC1	0.4	0.2
O=C1Nc2ccccc2C(O)(C(=O)NCc2ccc3c(c2)OCO3)N1c1c(F)cccc1F (centres undefined)	·	-1.5
C[C@H](CO)N1C[C@H](C)[C@@H](CN(C)CC2CC2)Oc2ccc(NS(=O)(=O)c3ccc(F)cc3)cc2C1=O	0.2	0.7
FC(F)(F)c1cc(C#CCN2CCCCC2)cc(C(F)(F)F)c1	-0.3	8.8
C[C@H](CO)N1C[C@H](C)[C@H](CN(C)C)Oc2ccc(NS(C)(=O)=O)cc2C1=O	0.4	4.0
COc1ccc(CCNc2nc3c(c(C(F)(F)F)n2)CC(C)CC3)cc1OC (centres undefined)	·	1.5
C[C@H](CO)N1C[C@H](C)[C@H](CN(C)Cc2ccc(C(F)(F)F)cc2)Oc2ccc(NC(=O)CCC(F)(F)F)cc2C1=O	-0.3	-2.1
CCOC(=O)N1CCC(NC(=O)c2ccc(NC(=O)C3CCCO3)cc2)CC1 (centres undefined)	·	-4.3
O=C(NCc1ccccc1)C1C2C=CC3(CN(Cc4cccnc4)C(=O)C13)O2 (centres undefined)	0.5	2.3
C[C@H]1CN([C@@H](C)CO)C(=O)c2cccc(NS(=O)(=O)c3ccc(Cl)cc3)c2O[C@H]1CN(C)S(C)(=O)=O	·	0.8
Cc1cccc(-n2ncc3ccccc3c2=O)c1	-3.4	-0.9

Random excerpt: six compounds from above
SMILES	A1 inhib	BJeLR viab HTS
C[C@H](CO)N1C[C@H](C)[C@@H](CN(C)CC2CC2)Oc2ccc(NS(=O)(=O)c3ccc(F)cc3)cc2C1=O	0.2	0.7
CCOC(=O)N1CCC(NC(=O)c2ccc(NC(=O)C3CCCO3)cc2)CC1 (centres undefined)	·	-4.3
O=C(Oc1ccccc1)N1CCCC1	0.4	0.2
Cc1cccc(-n2ncc3ccccc3c2=O)c1	-3.4	-0.9
O=C1Nc2ccccc2C(O)(C(=O)NCc2ccc3c(c2)OCO3)N1c1c(F)cccc1F (centres undefined)	·	-1.5
CC(C)(C)c1ccc(Oc2ccc(NC(=O)c3ccccc3)cn2)cc1	-0.1	5.0

Next section
SMILES	A1 inhib	BJeLR viab HTS
C[C@@H]1CN([C@@H](C)CO)C(=O)c2cc(NC(=O)Cn3cnnn3)ccc2O[C@@H]1CN(C)C	0.0	0.0
CNC[C@@H]1Oc2c(NS(C)(=O)=O)cccc2C(=O)N([C@H](C)CO)C[C@@H]1C	·	0.1
CC(=O)Nc1ccc(S(=O)(=O)NC2=NCN(C)CN2)cc1	-0.7	-0.9
COc1cccc(-c2nn(C)c3sc(C(=O)N4CCCCCC4)cc23)c1	·	-2.1
C[C@H](CO)N1C[C@H](C)[C@H](CN(C)Cc2ccc(C(F)(F)F)cc2)Oc2c(NC(=O)c3ccc(-c4nccs4)cc3)cccc2C1=O	·	1.9
COc1ccc(S(=O)(=O)N(C)C[C@@H]2Oc3ccc(NC(=O)NC(C)C)cc3C(=O)N([C@@H](C)CO)C[C@H]2C)cc1	0.1	-0.9
CC(=O)Nc1nc(C)cc2c1c(=O)oc1ccccc12	·	1.9
C[C@@H]1CN([C@H](C)CO)C(=O)c2cccc(NC(=O)C3CCCCC3)c2O[C@H]1CN(C)C(=O)Nc1cccc2ccccc12	·	-2.1
CC(C)NC(=O)N(C)C[C@@H]1Oc2c(NC(=O)NC3CCCCC3)cccc2C(=O)N([C@H](C)CO)C[C@@H]1C	·	-2.4
Cc1ccc(S(=O)(=O)Nc2ccc3c(c2)C(=O)N([C@@H](C)CO)C[C@@H](C)[C@H](CN(C)Cc2ccc(-c4ccccc4)cc2)O3)cc1	-0.2	-0.8
Cc1cccc(Oc2coc3cc(OC(=O)c4cccs4)ccc3c2=O)c1	0.7	5.4
CNC[C@H]1Oc2ccc(NS(=O)(=O)c3ccc(Cl)cc3)cc2C(=O)N([C@@H](C)CO)C[C@H]1C	-0.3	0.4
O=C(NCc1csc(-c2cccs2)n1)Nc1cccc(Cl)c1	-0.3	0.1
C[C@@H]1CN([C@H](C)CO)C(=O)c2cc(NC(=O)C3CC3)ccc2O[C@H]1CN(C)S(=O)(=O)c1ccccc1	-0.3	2.6
O=C(CCN1C(=O)COc2ccccc21)NCCN1CCc2ccccc2C1	0.3	0.9
C[C@H](CO)N1C[C@H](C)[C@H](CN(C)C(=O)NC2CCCCC2)Oc2c(NC(=O)C3CCCCC3)cccc2C1=O	·	-3.0
COc1cc2c(cc1OC)C(C)N(C(=O)c1cc3c(Cl)nc4ccc(C)cc4c3s1)CC2 (centres undefined)	·	2.2
CCN(CC)C(=O)c1cn(C)c(=O)c2cc(OC)c(OC)cc12	·	-7.7
CC(C)Cn1c(SCC(=O)c2ccc(Cl)cc2)nc2ccccc2c1=O	-0.6	-2.8
CC(C)[C@H](N)C(=O)OCCOCn1cnc2c(=O)[nH]c(N)nc21	-1.0	-4.9
COC(=O)C1CCN(C(=O)C(C)Oc2ccccc2)CC1 (centres undefined)	0.4	-2.3
C[C@@H]1CN([C@@H](C)CO)C(=O)c2cc(N(C)C)ccc2O[C@@H]1CN(C)C(=O)Nc1ccc(C(F)(F)F)cc1	0.7	-1.2
CCOC(=O)N1CCN(C(=O)CCN2C(=O)/C(=C/C=C/c3ccccc3)SC2=S)CC1	·	2.0
C[C@H](CO)N1C[C@H](C)[C@H](CN(C)Cc2ccc(C(F)(F)F)cc2)Oc2ccc(NC(=O)Cc3cn(C)c4ccccc34)cc2C1=O	-0.5	-3.1
Cc1ccc(S(=O)(=O)N(C)Cc2nc(-c3ccc(Cl)cc3)no2)cc1	·	-6.3
Cc1noc(C)c1S(=O)(=O)Nc1cccc2c1O[C@H](CN(C)CC1CCCCC1)[C@H](C)CN([C@@H](C)CO)C2=O	·	-2.5
COc1ccc(-c2cnn(-c3ccccc3)c2N)cc1OC	0.7	-4.1
C[C@H](CO)N1C[C@H](C)[C@H](CN(C)C(=O)Nc2cccc3ccccc23)Oc2ccc(NC(=O)Nc3ccc(F)cc3)cc2C1=O	-0.8	-4.5
Cc1ccccc1C(=O)c1ccc2c(c1)n(C)c(=O)n2C	1.1	-2.0
N#C/C(=C\c1ccc(O)c(O)c1)C(=O)NCCCCc1ccccc1	-6.0	3.0
COc1ccccc1C1CCN(S(=O)(=O)c2ccc(-c3csc(C)n3)s2)CC1	0.1	5.2
O=C(Cn1c(=O)n(-c2cccc(C(F)(F)F)c2)c(=O)c2sccc21)N1CCCc2ccccc21	·	-2.9
C[C@@H]1CN([C@@H](C)CO)C(=O)c2cccc(NS(=O)(=O)c3ccc(F)cc3)c2O[C@H]1CN(C)S(=O)(=O)c1ccc(F)cc1	·	1.5
CCOc1ccc(N=c2scc(-c3ccc(S(=O)(=O)N(CC)CC)cc3)n2CCCO)cc1	-1.1	7.8
CC1=C(C(=O)O)SCCO1	0.7	0.6
CCN(CC)C(=O)c1ccc(OC(C)=O)cc1	0.1	-0.7
O=c1[nH]cnc2c1sc1nc(N3CCOCC3)c3c(c12)CCCC3	-0.1	-3.2
Cc1noc(C)c1NC(=O)Nc1cccc2c1O[C@H](CN(C)Cc1ccc(Oc3ccccc3)cc1)[C@H](C)CN([C@H](C)CO)C2=O	·	-7.6
COc1ccc(NC(=O)Nc2cccc3c2O[C@H](CN(C)Cc2ccc(Oc4ccccc4)cc2)[C@@H](C)CN([C@@H](C)CO)C3=O)cc1	·	4.6
C[C@@H]1CN([C@@H](C)CO)C(=O)c2cccc(NS(C)(=O)=O)c2O[C@H]1CN(C)C(=O)Nc1ccccc1	·	-1.7
CC(Oc1ccc(Cl)cc1Cl)C(=O)NCCC1=CCCCC1 (centres undefined)	0.0	1.0
CCN(C(=O)CSc1nc2ccccc2c2nc3ccccc3n12)c1cccc(C)c1	-0.4	0.3
COc1ccc(S(=O)(=O)Nc2cccc3c2O[C@H](CN(C)C(=O)NC(C)C)[C@@H](C)CN([C@@H](C)CO)C3=O)cc1	·	5.3
COc1ccc(C(=O)NC(C)C(c2cccs2)N2CCN(c3ccccc3F)CC2)cc1OC (centres undefined)	·	8.2
Cc1ccc(S(=O)(=O)N(C)C[C@H]2Oc3c(NC(=O)c4cnccn4)cccc3C(=O)N([C@H](C)CO)C[C@H]2C)cc1	·	-3.1
O=C(O)CSC12CC3CC(CC(C3)C1)C2	0.6	-0.9
C[C@H]1CN([C@@H](C)CO)C(=O)c2cccc(NS(=O)(=O)c3ccc(F)cc3)c2O[C@@H]1CN(C)C(=O)Nc1ccccc1	·	-0.4
COc1cccc(C(=O)NC2CC(C)(C)NC(C)(C)C2)c1	1.3	9.7
Cc1c(N(C)C)c(=O)n(-c2ccccc2)n1C	-0.3	-3.6
Cc1cc(NC(=O)CSc2cn(Cc3ccc(F)cc3)c3ccccc23)no1	-0.3	-0.6
Cc1cccc(NC(=O)CSc2nsc(SCC(=O)Nc3cccc(C)c3)c2C#N)c1	-3.1	1.1
Cc1cc(C(=O)Nc2cccc3c2O[C@H](CN(C)C(=O)Nc2ccc(F)cc2)[C@H](C)CN([C@@H](C)CO)C3=O)n(C)n1	·	-0.4
C[C@H]1CN([C@@H](C)CO)C(=O)c2cc(NC(=O)Cn3cnnn3)ccc2O[C@@H]1CN(C)Cc1ccc(C(F)(F)F)cc1	0.6	-3.1
C[C@H](CO)N1C[C@H](C)[C@H](CN(C)C(=O)Nc2ccc3c(c2)OCO3)Oc2ccc(NC(=O)CCN3CCOCC3)cc2C1=O	-0.3	-2.2
COc1ccc(CCN2C(=O)CSC2=NC2CC2)cc1OC	0.3	0.7
CCOc1ccc(CNC(=O)COc2cc(=O)n(CC)c3ccccc23)cc1	·	7.4
COc1ccc(NC(=O)Nc2cccc3c2O[C@H](CN(C)S(=O)(=O)c2ccc(OC)cc2)[C@H](C)CN([C@@H](C)CO)C3=O)cc1	·	-7.4
CN1CCc2ccccc2Cc2[nH]c3ccccc3c2CC1	-0.2	1.8
COc1ccc(/C=C/C(=O)Nc2ccc(-n3nncc3-c3ccc(OC)c(OC)c3)cc2)cc1OC	-0.4	-6.7
O=C(O)Cn1ncc2c3ccccc3n(Cc3cccc(Cl)c3)c2c1=O	0.1	0.9
Next results
SMILES	A1 inhib	BJeLR viab HTS
CC(=O)O[C@@H]1C[C@@H](C)[C@](O)(CCC2=CC(=O)OC2)[C@@]2(C)CCCC(C)(C)C12 (some centres undefined)	-0.3	13
C[C@@H]1CN([C@H](C)CO)C(=O)c2cccc(NC(=O)C3CCOCC3)c2O[C@H]1CN(C)Cc1ccc(-c2ccccc2)cc1	·	-2.7
Cc1nc(-c2ccccc2)sc1C(=O)Sc1ccc(Cl)cc1	0.1	-3.0
C[C@H](CO)N1C[C@H](C)[C@H](CN(C)CC2CC2)Oc2c(NC(=O)c3nc4ccccc4s3)cccc2C1=O	·	-2.9
CCN(CC)S(=O)(=O)c1ccc(OC)cc1	0.3	-3.9
CCc1nc2sc(C#N)c(N)c2cc1C	-1.0	9.2
C[C@H]1CN([C@@H](C)CO)C(=O)c2cccc(NC(=O)c3nc4ccccc4s3)c2O[C@H]1CN(C)Cc1ccccc1	·	0.6
CC(C)c1ccc(N(C)C(=O)Cc2c(C(=O)O)n(C)c3ccccc23)cc1	·	-0.7
FC(F)(F)c1cc(N2CCCCC2)c2cccc(Cl)c2n1	0.1	-7.0
C[C@H](CO)N1C[C@H](C)[C@H](CN(C)Cc2ccccc2)Oc2c(NC(=O)Nc3ccc(C(F)(F)F)cc3)cccc2C1=O	·	1.4
COc1ccc2c(Sc3ccc(Cl)cc3)c(C(=O)NCCCN3CCN(C)CC3)[nH]c2c1	0.0	3.9
C[C@H]1CN([C@@H](C)CO)C(=O)c2cc(NC(=O)CCC(F)(F)F)ccc2O[C@H]1CN(C)Cc1ccc(C(=O)Nc2ccccc2N)cc1	·	7.7

Bioassay records: PubChem BioAssay, Broad Institute
